GIV Gai3 FP – inhibitors of GIV peptide binding to Galpha-i3, primary screen, biochemical, fluorescence polarization, FITC-GIV GBA peptide, rat Galphai3. 90 min; stronger effect = lower value; scaled: aluminum fluoride 0%, vehicle 100%. percent of control (FP), % (concentration not given with the values). actives 0.42% (n = 210,000). AID 1224905, 2016;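 active means replicate mean at 85% of control or lower, very high polarization wells dropped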;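 further: wells of about 15 µL received 100 nL stock; the first replicate is given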
Target sequence (P08753 whole entry, looked up): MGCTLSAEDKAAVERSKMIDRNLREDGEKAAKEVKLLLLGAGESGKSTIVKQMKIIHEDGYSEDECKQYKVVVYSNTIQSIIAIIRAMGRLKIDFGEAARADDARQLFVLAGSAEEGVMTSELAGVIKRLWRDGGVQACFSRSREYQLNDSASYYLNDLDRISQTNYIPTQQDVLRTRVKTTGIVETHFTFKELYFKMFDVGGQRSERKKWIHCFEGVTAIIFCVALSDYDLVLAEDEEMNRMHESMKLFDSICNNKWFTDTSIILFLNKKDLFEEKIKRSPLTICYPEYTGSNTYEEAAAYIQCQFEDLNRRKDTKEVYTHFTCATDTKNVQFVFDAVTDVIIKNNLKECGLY
HCMV NEC inh – inhibitors of HCMV UL50-UL53 interaction, biochemical, HTRF; HCMV UL50-UL53 nuclear egress complex (human cytomegalovirus); normalized percent inhibition; inhibition, % (test concentration not listed); actives 0.15% (n = 190,000);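 active means both replicates at 50% or more, plus weaker picks with an unusually low signal ratio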;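 further: stock transfer was 100 nL into about 20 µL; 0% = negative control wells and 100% = wells with untagged competitor protein; inactives centre near -12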
Sa growth 42C – S. aureus growth inhibition at 42 and 30 °C, primary screen, LtaS inhibitor project, RN4220, two temperatures; OD600, 20 h, 42 °C; stronger effect = lower value; relative growth, % (no concentration beside the values); actives 0.53% (n = 170,000);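 active means growth at 42 °C up to 50% and 20 or more points under that at 30 °C, or under 10% at both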;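 further: 300 nL library stock went into each well; scaled to the means of positive and negative controls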
Sa growth 42C second temp – also measured in Sa growth 42C; calls as there; relative growth, %; measured here: growth at 30 °C;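 optical density after 20 h as mean of two plates; 100% = untreated growth and lower means inhibition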
* marks the source's active call; other numbers are inactive results; nt = not tested or not shown; & = joins results of further samples.

SMILES	GIV Gai3 FP	HCMV NEC inh	Sa growth 42C	Sa growth 42C second temp
Cc1ccc(N2N=NC3CCC(C4=CCCC4)C32N2CCOCC2)cc1Cl (configuration not stated)	nt	-24	112	88
O=c1ccc2cc(S(=O)(=O)Nc3ccccn3)ccc2o1	112	5	102	101
CC(=O)Nc1ccc(/C=N/n2cc(-c3ccccc3)[nH]c2=S)cc1	nt	-39	82	95
COc1cc2c(cc1OC)C(C)N(C(=O)c1ccccc1)CC2 (configuration not stated)	110	3	131	88
Cc1c(CNCc2ccc(Cl)cc2)c(C(=O)O)c(C)n1Cc1ccc(F)cc1	104	-32	108	91
CCc1ccc(-c2ccc(=O)n(CC(=O)N3CCCCC3)n2)cc1	97	-86	88	93
COCCCn1c(Sc2ccc(S(=O)(=O)N3CCCC3)cn2)nnc1-c1ccccc1Cl	nt	-10	104	100
COc1ccc(C)cc1NC(=O)c1cc2c(s1)-c1ccccc1SC2	101	-24	95	94
Cc1cc(NC(=O)C2CCCCC2)nc2c1c(=O)oc1ccccc12	106	nt	85	81
COc1ccc(C(=O)NCc2ccco2)cc1OC	98	-4	110	87
O=C(Cn1ncc2c(Cl)cccc21)NCCN1CCCC1	101	-21	89	85
c1ccc(-n2ccnc2)c(-c2ncn[nH]2)c1	101	-15	nt	nt
NC(=O)c1cc(S(=O)(=O)NCc2cccc(Br)c2)cs1	99	nt	84	90
Cc1nn2c3c(nnc2c1-c1ccccc1)C(=O)CC(c1ccccc1)C3 (configuration not stated)	100	-17	nt	nt
CCCCN1CC(c2nc3ccccc3n2CCCCOc2cc(C)ccc2C)CC1=O (configuration not stated)	108	2	93	28
CC(=O)NC1=NC(=O)/C(=C\c2ccc(OCc3ccccc3)cc2)S1	104	-4	nt	nt
C=CCN1C(=O)c2ccccc2N2C(=O)CCC12C(=O)O (configuration not stated)	nt	3	111	96
Nc1nc(-c2ccco2)c(-c2ccco2)s1	nt	-69	59	88
O=C(CN(C(=O)Cn1nnc(-c2cccs2)n1)c1ccc2c(c1)OCCO2)NCC1CCCO1 (configuration not stated)	97	13	80	90
CCn1c2ccccc2c2cc(NC(=O)COc3ccccc3C#N)ccc21	nt	-13	63	73
CC(=O)Nc1ccc(S(=O)(=O)N2CCCCC2)cc1Cl	102	nt	103	87
CCc1cccc(CC)c1N(COC)C(=O)CN1c2ccccc2NC1CC (configuration not stated)	104	-11	95	84
CC(=O)c1c(C)oc2c(Cl)cc(NS(=O)(=O)c3ccc(Cl)cc3)cc12	108	nt	111	91
Cc1[nH]c(C)c(S(=O)(=O)N2CCC(C(=O)N(C(C)C)C3CCCCC3)CC2)c1C(=O)N1CCCCC1	106	-39	nt	nt
CCc1ccccc1-n1c(-c2ccc(Cl)cc2)cn2c3c(=O)n(C)c(=O)n(C)c3nc12	104	-27	nt	nt
COc1ccccc1CNCc1ccc(C(=O)O)s1	100	-35	93	84
Cc1cc(C)cc(OCCn2c(C3CC(=O)N(c4ccccc4Cl)C3)nc3ccccc32)c1 (configuration not stated)	103	-13	106	83
CCC(CC)NC(=O)CSc1nc2c(cnn2-c2cccc(C)c2)c(=O)[nH]1	nt	-21	77	96
CCCNC(=O)C(C)n1nc(C)c2c(C)n(-c3ccccc3)nc2c1=O (configuration not stated)	100	nt	79	90
c1ccc(-c2nc(-c3cccs3)[nH]c2-c2ccccc2)cc1	105	12	112	94
O=C(NCc1cccnc1)C(=O)NCC(c1cccnc1)N1CCN(c2ccccc2)CC1 (configuration not stated)	108	5	104	96
O=S(=O)(c1ccc(F)cc1F)N1CC(OCc2ccc(Cl)cc2)C1	98	12	nt	nt
CC(C)(C#N)NNC(N)=S	nt	-23	69	94
Cn1cnnc1SCC(=O)N1CCCc2ccccc21	102	7	nt	nt
Cc1ccc(-n2nnnc2-c2ccccc2)cc1	104&98	-14	102	98
CC1CC(C)(C)NC(=S)O1 (configuration not stated)	106	-23	118	93
COc1ccc(CC(=O)N2CCOCC2)cc1	102	-38	81	89
Cc1sc(-c2noc(C3CC3)n2)cc1S(=O)(=O)N1CCC2(CC1)OCCO2	106	-36	nt	nt
CCC(Cc1ccccc1)NC(=O)Cn1ncc2c3ccccc3n(Cc3ccccc3)c2c1=O (configuration not stated)	108	-34	96	84
O=C(O)COc1ccc2c(c1)C(=O)c1cc(OCC(=O)O)ccc1-2	84*	-57	89	86
COc1cc(OC)c(NC(=O)c2nc(-c3ccncc3)no2)cc1Cl	103	13	108	95
Cc1cc(C(=S)NC(=O)c2ccccc2)c(C)n1C	nt	-72	85	88
Cc1nc2nc(NC(=O)C3CCCCC3)[nH]n2c(=O)c1C	99	nt	84	90
COCCCN1C(=O)c2cc3oc(C)cc3n2CC1(C)C(=O)NC1CCCCC1 (configuration not stated)	102	-16	nt	nt
CCCc1nc2ccccc2n2cc3c(=O)n(C)c(=O)n(C)c3c12	100	-12	91	99
CCOc1ccc2[nH]c(=O)c(CN(CCO)C(=O)Nc3ccc(OC)cc3)cc2c1	97	-27	96	86
CCCC1CC(C)(C(=O)C[n+]2cccc(C(N)=O)c2)OC1=O (configuration not stated)	nt	-4	114	97
Cc1ccc(CCS(=O)(=O)c2ccc(C(C)C)cc2)c[n+]1C	106	nt	98	92
CN(Cc1ccccc1)C(=O)c1ccc2c(c1)N(Cc1ccc(Cl)cc1)C(=O)c1ccccc1S2=O (configuration not stated)	106	-4	98	90
CSc1ccc(/C=N/NC(N)=S)cc1	96	-66	89	51
CC(C)CNC(=O)Cc1ccccc1	105	-12	118	100
O=C(c1cc(-c2ccc(O)cc2)on1)N1CCN(Cc2ccccc2)CC1	105	nt	103	62
COc1ccc(C(=O)c2ccc(OC)c(OC)c2)cc1	110	-2	95	83
O=C(NCCCN1CCCCCC1)c1cc(=O)[nH]c2ccc(S(=O)(=O)N3CCCCC3)cc12	101	-13	95	92
COC(=O)c1ccc(CN2C(=O)C3CCCCC3C2=O)o1 (configuration not stated)	105	-3	nt	nt
CN1CCN(c2nc(C#N)c(C#N)nc2C(C#N)=C2Nc3ccccc3N2)CC1	100	-24	103	92
O=C(Nc1sc2c(c1C(=O)NCC1CCCO1)CCC2)c1cc(-c2ccccc2)on1 (configuration not stated)	101	-4	nt	nt
O=C1OC(c2ccccc2)OC(=O)C1=Cc1cccc(OCc2ccccc2)c1 (configuration not stated)	95	nt	88	76
COCC(=O)N1CCN(Cc2ccccc2)CC1	105	-9	82	99
COc1ccc(NC(=O)c2cc(F)cc3c2OCOC3)cc1	103	2	100	101

(list continues)
SMILES	GIV Gai3 FP	HCMV NEC inh	Sa growth 42C	Sa growth 42C second temp
CC(C(=O)NCc1ccc(F)cc1)n1cccc1C(=O)c1ccccc1 (configuration not stated)	103	3	96	77
Cc1nc(Nc2ccccc2)sc1C(=O)c1ccc2c(c1)OCCO2	100	-28	85	82
CCOC(=O)C1CCN(C(=O)c2nn(-c3ccc(C)cc3)c(=O)n(C)c2=O)CC1	101	nt	96	87
CCc1cccc(-n2nnc(-c3nc(-c4cccs4)no3)c2N)c1	101	nt	135	108
CCN(C(=O)C(C)Sc1ccc(S(=O)(=O)N2CCN(C)CC2)cn1)c1ccccc1 (configuration not stated)	nt	-22	92	82
O=C(NCc1ccc(C(F)(F)F)cc1)c1ccc(Cl)cc1Cl	104	-4	89	92
Cc1ccc2cccc(NC(=O)C(C)(C)Oc3ccc(Br)cc3)c2n1	99	-5	112	90
O=C(CN1C(=O)COc2ccc(S(=O)(=O)N3CCOCC3)cc21)NCCc1c[nH]c2ccccc12	99	-34	nt	nt
CC1Oc2ccc(-c3csc(NC(=O)C(C)(C)C)n3)cc2NC1=O (configuration not stated)	97	1	nt	nt
COc1ccc(OC)c(NC(=O)COc2ccc3c4c(c(=O)oc3c2)CCC4)c1	111	19	106	110
CC1CCN(C(=O)c2ccc(Br)cc2)CC1	107	-2	98	80
COC(=O)C(C)NC(=O)N1CCN(c2nnc(C)c3c(C)n(-c4ccc(C)cc4)nc23)CC1 (configuration not stated)	110	-16	92	90
CCOc1cc(C(F)(F)F)c(C(=O)N(CC)c2ccc(Cl)cc2)cn1	108	0	119	94
CC12CN3CC(C)(CN(C1)C3c1ccc(O)c(O)c1)C2=O (configuration not stated)	109&100	-7	nt	nt
O=c1/c(=C/c2cn(Cc3ccccc3Cl)c3ccccc23)sc2nc3ccccc3n12	104	-15	nt	nt

Shown as labelled records: entries from further up.
> CCc1cccc(-n2nnc(-c3nc(-c4cccs4)no3)c2N)c1
  GIV Gai3 FP: 101; HCMV NEC inh: nt; Sa growth 42C: 135; Sa growth 42C second temp: 108
> CC12CN3CC(C)(CN(C1)C3c1ccc(O)c(O)c1)C2=O (configuration not stated)
  GIV Gai3 FP: 109&100; HCMV NEC inh: -7; Sa growth 42C: nt; Sa growth 42C second temp: nt

As a short view, 7 of the compounds above:
SMILES	GIV Gai3 FP	HCMV NEC inh	Sa growth 42C	Sa growth 42C second temp
Cc1ccc(N2N=NC3CCC(C4=CCCC4)C32N2CCOCC2)cc1Cl (configuration not stated)	nt	-24	112	88
O=c1ccc2cc(S(=O)(=O)Nc3ccccn3)ccc2o1	112	5	102	101
CC(=O)Nc1ccc(/C=N/n2cc(-c3ccccc3)[nH]c2=S)cc1	nt	-39	82	95
COc1cc2c(cc1OC)C(C)N(C(=O)c1ccccc1)CC2 (configuration not stated)	110	3	131	88
Cc1c(CNCc2ccc(Cl)cc2)c(C(=O)O)c(C)n1Cc1ccc(F)cc1	104	-32	108	91
CCc1ccc(-c2ccc(=O)n(CC(=O)N3CCCCC3)n2)cc1	97	-86	88	93
COCCCn1c(Sc2ccc(S(=O)(=O)N3CCCC3)cn2)nnc1-c1ccccc1Cl	nt	-10	104	100

More entries follow:
SMILES	GIV Gai3 FP	HCMV NEC inh	Sa growth 42C	Sa growth 42C second temp
O=C(CNC(=O)c1cccs1)NC1=NCCS1	105	1	110	86
O=C1c2ccccc2C(=O)N1CNN1CCCc2ccccc21	nt	-46	113	81
O=C(CSc1ccc(-c2ccco2)nn1)N1CCCc2ccccc21	108	-8	107	77
CCCNC(=O)c1c(OC)cccc1OC	104	-20	86	89
CC1(C)CC(CCNC(=O)c2ccccc2C(=O)O)(Cc2ccccc2)CCO1 (configuration not stated)	nt	-10	92	77
Cc1ccc(C#N)cc1	nt	6	97	98
Cn1cc(-c2nc(-c3ccccc3)no2)c(=O)c2cc(F)c(N3CCCCC3)cc21	103	-33	nt	nt
CCN1CCN(c2cc(C)c3cc(NC(=S)N4CCOCC4)ccc3n2)CC1	105	-11	100	88
CC(C)NC(=O)c1ccccc1NS(=O)(=O)c1ccc(F)cc1	nt	-39	98	81
O=C(NCc1ccc(Cl)cc1)c1cnc(N2CCCCC2)c2ccccc12	107	nt	88	104
CCC(C)NC(=O)c1ccc2c(c1)N(Cc1cccc(Cl)c1)C(=O)c1ccccc1S2=O (configuration not stated)	102	nt	130	93
CC1=NC(=O)/C(=C\c2ccc(O)cc2)N(C)N1c1ccccc1	nt	-15	79	85
COc1ccc(OC)c(N2C(=O)C3C4C=CC(CC4)C3C2=O)c1 (configuration not stated)	110	-14	nt	nt
COc1ccc(-n2c(SCC(=O)c3ccc(Cl)cc3)nc3ccccc3c2=O)cc1	107	nt	100	79
O=C(/C=C/c1ccccc1)N1CCc2ccccc21	101	3	101	96

Reprinted from the part before: two entries; new compounds follow.
SMILES	GIV Gai3 FP	HCMV NEC inh	Sa growth 42C	Sa growth 42C second temp
COc1ccc(-n2c(SCC(=O)c3ccc(Cl)cc3)nc3ccccc3c2=O)cc1	107	nt	100	79
O=C(/C=C/c1ccccc1)N1CCc2ccccc21	101	3	101	96
CCOc1ccc(CNC(=O)c2cnc3sc(N4CCCCCC4)nn3c2=O)cc1OC	106	nt	105	91
CCOCCCNC(=O)C(c1ccc(C)cc1)N(Cc1ccc2c(c1)OCO2)C(=O)c1ccccc1O (configuration not stated)	103	0	90	84
COc1ccc(Br)cc1CNC(=O)CN1C(=O)c2cccnc2Oc2ccc(C)cc21	104	nt	98	75
N#CC(Cc1ccccc1)Sc1ccccc1 (configuration not stated)	nt	-35	118	85
CCC(C(=O)O)n1nc(C)c2sc3ccccc3c2c1=O (configuration not stated)	100	nt	87	89
CCc1c(C)c2ccc(O)c(CN3CCN(c4ccc(OC)cc4)CC3)c2oc1=O	98	-25	104	85
COC(=O)CSc1ccc2nnc(CCNS(=O)(=O)c3ccccc3)n2n1	109	nt	81	75
Cc1cc(C(=O)CN2C(=O)CNC2=O)c(C)n1-c1ccccc1	nt	-15	96	94
Cn1c(C(=O)NCc2ccccc2F)cc2cc(S(=O)(=O)N3CCCCC3)ccc21	89	nt	87	84
O=C(CC1CCN(C(=O)Nc2cccc(Cl)c2)CC1)NCc1ccccc1	99	-30	nt	nt
N#C/C(=C/c1ccc(-c2ccc(Br)cc2)o1)C(=O)NC1CCCCC1	93	-6	76	93
C=CCn1cc(C=C2C(=O)N(C)C(=S)N(C)C2=O)c2ccccc21	110	nt	86	86
O=C(NC1CC1)c1ccc2c(c1)CCN2S(=O)(=O)c1ccccc1	102	-22	83	72
Cc1c(NS(=O)(=O)c2ccc(C(C)(C)C)cc2)c(=O)n(-c2ccccc2)n1C	106	-41	106	87

Screening results (PubChem BioAssay)
